Bioassay records from PubChem BioAssay.
INS promoter inh = TRM-6 insulin promoter activity inhibition | AID 1273 | TRM-6 cells (human fetal islet line), insulin promoter-eGFP reporter, imaging; reporter expression induced with tamoxifen | actives 0.9% (n = 130,000) | inhibition, % at 2 µM;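 active means inhibition above the mean plus 3 SD, with well images judged a real hit on visual review, cut at about 60% in these data, passing the limit was not always enough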
PKD1 kinase inh = blocks activity of human protein kinase D1 | Q15139 | PKD1 kinase fluorescence polarization assay | inhibition, %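 (about 10 µM by stock and volumes)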 | actives 0.056% (n = 200,000);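 active means inhibition of 50% or more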;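 further: controls were vehicle for no effect and a reference inhibitor for full effect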
Target sequence (Q15139 whole entry, looked up): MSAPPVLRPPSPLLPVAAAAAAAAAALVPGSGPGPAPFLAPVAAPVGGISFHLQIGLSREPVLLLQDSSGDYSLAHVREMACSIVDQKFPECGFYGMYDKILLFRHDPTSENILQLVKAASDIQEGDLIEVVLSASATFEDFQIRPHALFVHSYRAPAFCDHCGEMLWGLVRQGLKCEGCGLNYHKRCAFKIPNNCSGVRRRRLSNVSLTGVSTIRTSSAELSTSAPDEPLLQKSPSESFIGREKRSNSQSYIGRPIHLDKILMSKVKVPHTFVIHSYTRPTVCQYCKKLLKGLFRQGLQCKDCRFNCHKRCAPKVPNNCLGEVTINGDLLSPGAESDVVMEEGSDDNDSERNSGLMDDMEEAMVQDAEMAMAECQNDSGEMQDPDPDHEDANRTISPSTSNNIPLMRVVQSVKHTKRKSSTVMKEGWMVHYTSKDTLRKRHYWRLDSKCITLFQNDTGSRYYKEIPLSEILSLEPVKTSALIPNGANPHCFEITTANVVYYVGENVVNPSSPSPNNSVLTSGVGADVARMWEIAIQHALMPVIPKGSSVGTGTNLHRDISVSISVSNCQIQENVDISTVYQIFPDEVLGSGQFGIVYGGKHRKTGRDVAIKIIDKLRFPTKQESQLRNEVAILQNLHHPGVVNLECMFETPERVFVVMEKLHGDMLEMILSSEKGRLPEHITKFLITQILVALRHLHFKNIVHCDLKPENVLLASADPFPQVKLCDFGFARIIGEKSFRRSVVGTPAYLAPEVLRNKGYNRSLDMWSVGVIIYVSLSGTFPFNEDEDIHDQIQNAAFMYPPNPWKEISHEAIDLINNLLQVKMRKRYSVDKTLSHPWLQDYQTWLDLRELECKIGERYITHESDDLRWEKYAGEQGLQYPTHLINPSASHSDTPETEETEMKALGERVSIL
HSV replic up = HSV replication enhancement; HSV replication augmentation in cells, fold increase; maximum fold increase; actives 0.005% (n = 220,000); AID 1956;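 active means peak rise of 1.5-fold or more in the series; tested in PC3 cells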;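 further: first round at 10 µM; read as green reporter fluorescence; hits show the peak of a series up to 25 µM; 1 = signal of infected wells without compound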
RGS16-Gao HTS = modulates binding between human RGS16 and Galphao; actives 0.38% (n = 220,000); binding response (% of control), % at 10 µM; bead-based flow cytometry RGS16-Galphao binding, fluorescence; actives lie on both sides; O15492+P09471;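 active means below 25% or above 175%, edge rows of some plates excepted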;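 further: Galphao activated by GDP with aluminum fluoride before binding; 100% = wells without compound and 0% = beads without RGS; some results beyond the cut were filed as inactive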
GALR2 agonist = agonists of human galanin receptor 2 (GALR2); GALR2-expressing cells, agonist activation read-out; activation, %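 (tested at 5 µM)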; actives 0.48% (n = 140,000); O43603;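 active means above mean plus 3 SD of all compounds, about 5% in these data, not always enough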;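 further: 0% = vehicle buffer wells and 100% = reference agonist at full effect; tested in CHO reporter cells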
INS promoter inh cell count = second read-out of INS promoter inh, no call of its own (marks repeat the call); normalized cell count, %; measured here: cell count, toxicity; reference of the scale not given here;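 cells exposed to compound for 48 h; stained nuclei by imaging scaled within each plate; lower means fewer cells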
HSV replic up primary fold = also measured in HSV replic up; calls as there; fold increase; compound at 10 µM; measured here: primary screen fold increase 10 uM; tested in PC3 cells;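 GFP signal in the first replicate; 1 = infected wells without compound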
The depositor's hits bear a star; i = inactive; x = no result given.

SMILES | INS promoter inh | INS promoter inh cell count | PKD1 kinase inh | HSV replic up | HSV replic up primary fold | RGS16-Gao HTS | GALR2 agonist
CCCC(=O)NC(NC(=S)Nc1ccc(N=Nc2ccccc2)cc1)C(Cl)(Cl)Cl (stereo not given) | 4.8 | 126.8 | -1.2 | i | 0.92 | 104.6 | -0.8
CCOc1ccc(/C=C/C(=O)NCc2ccccc2)cc1 | -26.7 | 83.8 | -1.0 | i | 0.96 | 107.8 | -1.3
CCOc1cccc(N(C(=O)C2COc3ccccc3O2)C(C(=O)NC2CCCCC2)c2ccc(O)cc2)c1 (stereo not given) | 56.8 | 105.7 | -3.6 | i | 0.87 | 108.9 | -1.8
c1nnc2c3c4c(sc3ncn12)CCC4 | x | x | -9.8 | i | 1.04 | 103.4 | -2.5
CCOC(=O)c1[nH]cnc1C(=O)Nc1ccc(C)cc1 | x | x | x | i | 1.03 | 102.5 | x
COc1ccc(-c2nn(C)c(=O)c3ccccc23)cc1NC(=O)COc1ccccc1 | -6.9 | 93.6 | 8.6 | i | 0.97 | 94.0 | -0.5
COc1ccc(C)cc1NC(=O)C(OC(=O)c1ccc([N+](=O)[O-])o1)c1ccccc1 (stereo not given) | -73.3 | 77.4 | 0.7 | i | 1.04 | 105.6 | 0.0
Cc1c(CC=C(Cl)Cl)c(=O)[nH]c2c(C)cccc12 | 34.4 | 69.0 | 6.5 | i | 1.03 | 118.8 | -0.7
Cc1ccccc1OCC(O)Cn1c(Br)nc2c1c(=O)[nH]c(=O)n2C (stereo not given) | x | x | -3.6 | i | 0.87 | 97.1 | x
COc1ccccc1NC(=O)Cn1cnc2c(nnn2-c2ccc(C)cc2)c1=O | -52.6 | 109.7 | -8.5 | i | 1.06 | 98.3 | x
CCCCN(Cc1ccccc1)S(=O)(=O)c1cc(Br)cc2c1N(C(C)=O)C(C)C2 (stereo not given) | 0.0 | 81.3 | -14.4 | i | 0.97 | 98.4 | -1.9
COC(=O)Cn1c(SCc2ccccc2)nc2ccccc21 | 25.0 | 129.7 | 0.2 | i | 0.86 | 113.8 | -1.6
CCSc1nc2c(c(=O)[nH]1)C(c1ccncc1)C(C(=O)OC)=C(C)N2 (stereo not given) | x | x | 0.8 | i | 0.72 | 103.1 | 0.0
COc1cnc(SC)nc1Nc1ccc(C#N)cc1 | x | x | x | i | 0.89 | 101.7 | x
CCCN(CCC)C(=O)Cc1ccc(F)cc1 | 42.1 | 97.9 | -1.9 | i | 1.06 | 96.2 | x
NS(=O)(=O)c1cc2c(cc1C(F)(F)F)NCNS2(=O)=O | 34.8 | 126.7 | 3.4 | i | 0.83 | x | -2.5
Cc1cc2oc(C(=O)NCc3ccc(S(N)(=O)=O)cc3)c(C)c2cc1C | 24.3 | 139.5 | -6.7 | i | 1 | 105.3 | x
CCCOc1ccc(C(=O)Nc2cc(-c3nn4c(C)nnc4s3)ccc2C)cc1 | x | x | -9.6 | i | 0.93 | 115.3 | -3.0
Cc1cccc(C)c1-n1nnnc1-c1cnccc1C(F)(F)F | x | x | x | i | 0.99 | 104.4 | x
O=C(/C=C/c1ccc2c(c1)OCO2)Nc1nncs1 | x | x | x | i | 1.21 | 92.5 | x
CCc1nnc(NC(=O)c2ccc(N3C(=O)CCC3=O)cc2)s1 | x | x | 4.2 | i | 0.95 | 104.3 | -1.7
CCO[C@@H]1OC(C(N)=O)=C[C@H](c2ccc(C(F)(F)F)cc2)[C@H]1CCCO | x | x | -3.0 | i | 1.07 | 106.0 | x
CCc1ccc(N2C(=O)CC(N3CCN(c4ccccn4)CC3)C2=O)cc1 (stereo not given) | x | x | x | i | 0.98 | 98.7 | x
Oc1c(C(Nc2ccccn2)c2cccnc2)cc(Cl)c2cccnc12 (stereo not given) | 27.0 | 136.0 | -5.8 | i | 0.99 | 99.4 | -2.1
COc1ccc(-n2c(-c3cc(-c4ccccc4)sc3N)n[nH]c2=S)cc1 | x | x | x | i | 0.94 | 98.2 | x
COc1ccc(NC(=O)c2cccnc2N2CCCCC2)cc1 | -75.0 | 90.5 | -6.8 | i | 1.1 | 104.2 | -0.2
COCC(C)N=C1NN=C(c2cccs2)C(CC(=O)O)S1 (stereo not given) | x | x | 3.5 | i | 0.9 | 104.0 | x
COc1ccccc1C(=O)Nc1cccc(NC(C)=O)c1 | 27.3 | 121.0 | -3.0 | i | 1.03 | 104.4 | -1.1
COC(=O)c1cc(C(=O)OC)n(Cc2ccc(F)cc2)c1C | x | x | -1.0 | i | 1.08 | 99.2 | x
O=C(OCc1nc2ccccc2s1)c1cccs1 | 31.1 | 77.6 | -4.8 | i | 0.78 | 93.8 | -1.7
CCCCCCC(C)OC(=O)c1ccccc1C(=O)O (stereo not given) | x | x | x | i | 0.95 | 126.3 | x
O=C(NNC(=O)C1CC(c2cccnc2)=NO1)Nc1cccc(F)c1 (stereo not given) | x | x | -8.5 | x | x | 98.1 | -1.2
C/C(CC(=O)NC1C2CC3CC(C2)CC1C3)=N\NC(=O)Cc1cccs1 (stereo not given) | 25.5 | 70.8 | -0.5 | i | 1.03 | 107.5 | -2.0
COC(=O)c1c(Cc2ccccc2Cl)c[nH]c1C | 55.6 | 105.9 | -0.3 | i | 1.02 | 107.7 | -2.0
COc1cc(CC(=O)N2CCc3ccccc32)cc(OC)c1OC | x | x | -6.1 | i | 0.88 | x | -1.5
COc1cc(/C=N/NC(=O)c2sc3ccccc3c2Cl)ccc1OC(=O)c1ccc([N+](=O)[O-])cc1 | x | x | x | i | 1.04 | 107.6 | x
O=C1CCCc2c1cc(-c1ccccc1)n2-c1ccccc1 | -43.5 | 89.2 | -12.3 | i | 0.97 | 102.8 | -1.5
O=C(N/N=C/c1ccc(F)cc1)c1ccccc1 | -8.1 | 122.5 | -4.0 | i | 0.94 | 98.4 | x
CC(=O)c1c(C)n([O-])c2cc(F)c(F)cc2[n+]1=O | -80.0 | 89.1 | -5.7 | i | 0.92 | 101.4 | x
CC(C)CC(=O)Nc1ccc(C(=O)NNC(=S)NC(=O)C2CCCCC2)cc1 | -26.9 | 103.7 | 5.9 | i | 0.96 | 98.0 | -3.7

3 entries drawn at random from those above:
SMILES | INS promoter inh | INS promoter inh cell count | PKD1 kinase inh | HSV replic up | HSV replic up primary fold | RGS16-Gao HTS | GALR2 agonist
CC(=O)c1c(C)n([O-])c2cc(F)c(F)cc2[n+]1=O | -80.0 | 89.1 | -5.7 | i | 0.92 | 101.4 | x
O=C(OCc1nc2ccccc2s1)c1cccs1 | 31.1 | 77.6 | -4.8 | i | 0.78 | 93.8 | -1.7
Oc1c(C(Nc2ccccn2)c2cccnc2)cc(Cl)c2cccnc12 (stereo not given) | 27.0 | 136.0 | -5.8 | i | 0.99 | 99.4 | -2.1

(list continues)
SMILES | INS promoter inh | INS promoter inh cell count | PKD1 kinase inh | HSV replic up | HSV replic up primary fold | RGS16-Gao HTS | GALR2 agonist
COc1ccc(C(=O)/C=C2\NCC3c4ccccc4CCN3C2=O)cc1 (stereo not given) | x | x | 3.8 | i | 0.71 | 116.2 | -2.9
COc1cc2ccc(=O)oc2c(CC=C(C)C)c1OC | x | x | x | i | 0.77 | 99.4 | x
CCCCNc1cc(C)nc(NCc2ccccc2)n1 | x | x | 7.0 | i | 0.863 | 105.6 | -0.9
CN(C)c1ccc(NC(=S)NCC2CCCO2)cc1 (stereo not given) | -9.7 | 108.0 | 5.8 | i | 1.07 | 62.4 | -1.7
COc1ccc(CCNC(=O)CSc2nncs2)cc1 | 28.6 | 155.8 | -0.9 | i | 1.02 | 101.6 | 0.6
Cc1cc(C)n2nc(C(=O)OCC(=O)N3CCC3)nc2n1 | 11.1 | 110.8 | 0.4 | i | 0.99 | 93.0 | x
CCOc1ccc2ccccc2c1C(=O)N1CCOCC1 | -66.7 | 134.1 | -4.3 | i | 0.81 | 98.6 | -1.8
O=C(CCC1CCCN(C(=O)COc2ccccc2)C1)N1CCN(c2ccccn2)CC1 (stereo not given) | x | x | -0.4 | i | 1.01 | 108.1 | x
Cc1ccn2c(c1)nc(=S)n2C(=O)c1ccco1 | 0.0 | 100.8 | 7.5 | i | 0.87 | 94.1 | -1.3
O=C(Nc1nc(-c2ccccc2)cs1)NC1CCCCC1 | 39.1 | 140.7 | -2.9 | i | 0.98 | 103.3 | -0.5
Cc1ccc(CN2CCNC(=O)C2CC(=O)NC2CCCCCC2)o1 (stereo not given) | x | x | -5.2 | i | 0.98 | 100.2 | x
CCCCCCSc1nc2c(c(=O)[nH]c(=O)n2C)n1C | x | x | 0.7 | i | 0.98 | 101.1 | -3.4
COc1ccc(S(=O)(=O)Nc2ccccc2C(F)(F)F)cc1 | -11.1 | 95.8 | -2.5 | i | 0.94 | 97.0 | -0.7
O=C(NCc1ccc2c(c1)OCO2)C1CCC(CNS(=O)(=O)c2cccc3nsnc23)CC1 (stereo not given) | x | x | -14.6 | i | 0.79 | 100.4 | -3.3
C=CCc1ccccc1OCC(O)CN1CCN(c2ccc(OC)cc2)CC1 (stereo not given) | x | x | -6.8 | i | 0.92 | 96.1 | -1.5
COc1ccc(NC(=O)c2cc3n(n2)C(C(F)(F)F)CC(c2ccco2)N3)cc1 (stereo not given) | 37.5 | 87.3 | -0.1 | i | 1.21 | 91.3 | -1.1
N#CCCN(C(=O)Nc1ccc(Cl)cc1)c1ccccc1 | -14.3 | 155.0 | 4.5 | i | 0.86 | 95.7 | 0.6
CCOC(=O)C1=C(C)N(C)C(=S)NC1c1c(OCC)ccc2ccccc12 (stereo not given) | -14.3 | 131.9 | 0.3 | i | 0.94 | 97.8 | x
Cc1sc2ncnc(SC(C)C#N)c2c1C (stereo not given) | x | x | -0.6 | i | 0.9 | 108.1 | -1.3
COc1cccc(-c2cc(C(F)(F)F)n3nc(C(=O)Nc4c(C)n(C)n(-c5ccccc5)c4=O)cc3n2)c1 | x | x | 3.0 | i | 0.91 | 92.8 | x
CN(C)CCCN(C(=O)c1ccc2c(c1)CCCC2)c1nc2ccc(Cl)cc2s1 | x | x | 4.0 | i | 0.82 | 97.6 | 2.0
CCOC(=O)c1ccc(NC(=O)c2nc[nH]c2C(=O)N[C@@H](CCCCNC(=O)OC(C)(C)C)C(=O)OC(C)(C)C)cc1 | x | x | x | i | 0.91 | 96.0 | x
O=C(CCc1nnc(CCCCc2ccccc2)o1)NCCN1CCCCC1=O | x | x | -4.5 | i | 1.08 | 107.0 | x
COc1cc(CC(NC(C)=O)C(=O)NC2CCN(c3nc(OC)nc(OC)n3)CC2)cc(OC)c1 (stereo not given) | x | x | x | i | 0.95 | 102.1 | x
CCOC(=O)C1CCN(c2c(NCCCN3CCN(Cc4ccccc4)CC3)c(=O)c2=O)CC1 | x | x | -1.3 | i | 0.78 | 99.6 | -1.0
O=C1COc2ccc(C(=O)COC(=O)CCSc3ccc(Cl)cc3)cc2N1 | x | x | -3.2 | i | 0.86 | 98.5 | x
Cc1cccc(C)c1NC(=S)NC(C)CCc1ccccc1 (stereo not given) | x | x | 0.0 | i | 1.09 | 98.3 | -0.1
CC(C)N(C(C)C)S(=O)(=O)c1ccc(NN)nc1 | x | x | x | i | 0.89 | 102.8 | x
CC1=Nn2c(nnc2-c2n[nH]c3c2CCC3)SC1 | x | x | -6.8 | i | 1.07 | 100.0 | -3.1
CCn1c(Cc2ccccc2)nnc1SCc1nc2ccccc2c(=O)[nH]1 | -107.4 | 126.5 | -5.6 | x | x | 83.9 | 0.2
CCOC(=O)C1CCN(C(=O)c2cc(C)n(C(C)(C)C)n2)CC1 | x | x | x | i | 0.9 | 95.0 | x
COc1cc(/C=N/NC(=O)c2sc(N)c(C#N)c2C)ccc1O | -51.4 | 106.3 | 9.1 | i | 1 | 100.4 | -3.2
CCOC(=O)c1c(C)c(C(=O)Nc2ccc3c(c2)OCCO3)c(C)n1C | -12.5 | 76.0 | -4.4 | i | 0.95 | 90.0 | -1.2
CC(C)c1ccc(/C=C/C(=O)n2nnc3ccccc32)cc1 | 8.3 | 17.8 | -6.3 | x | x | 99.0 | -0.8
COc1ccc(CC(NC(C)=O)C(=O)NC2CCN(c3nc(C)cc(C)c3C#N)CC2)cc1 (stereo not given) | x | x | -0.4 | i | 0.93 | 108.0 | x
CCOC(=O)Cc1nn(Cc2ccc(Cl)cc2)c(=O)c2ccccc12 | x | x | -1.6 | i | 0.91 | 100.8 | x
O=c1c(-c2ccccc2)n[nH]c2ccccc12 | 15.2 | 94.0 | -1.9 | i | 1.03 | 102.6 | -1.4
Cc1cc(C(=O)NNC(=S)NCc2ccco2)n(C)n1 | -19.1 | 25.6 | -2.5 | i | 0.91 | 96.8 | -1.6
Cc1cc(C)c2cc(C)c3nnc(SCC(=O)NCc4ccc5c(c4)OCO5)n3c2c1 | -18.2 | 100.0 | -6.3 | i | 0.96 | 103.7 | -0.8
